eIF4H FP inh – human eIF4H binding inhibitors, primary screen, translation initiation inhibitor project, biochemical, uHTS, fluorescence polarization. Eukaryotic translation initiation factor 4H (Homo sapiens), Q15056. eIF4H fluorescence polarization binding assay. inhibition, % at 35 µM. actives 0.94% (n = 290,000). AID 2012, 2009;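 active = 50% or more with normal probe brightness, or confirmed in later tests; inconclusive = above 50% with abnormal brightness, or retests that disagree; inactive = below 50% or failed in later tests; about a fifth of its hits are not listed in these tables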;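 also: calls also rest on retests at 20 µM and on dose response follow-up; 0% = protein and probe with vehicle and 100% = probe without protein; strong numbers were not always called active; many hits fall short of the cut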
Env fusion inh – inhibitors of HIV-1 Env-driven cell-cell fusion, primary screen, HeLa-JRFL effector, CEM21 target cells, luciferase. inhibition, % at 12.3 µM. AID 651610, 2012. actives 1.1% (n = 360,000);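 active = mean replicate inhibition score of at least 50 and every replicate individually at or above 50; inconclusive = only one of the two criteria met; inactive = mean below 50 and not all replicates reaching 50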;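 also: 0% = plate neutral controls and 100% = maraviroc near 300 nM; one replicate is shown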
CSC inhib – cancer stem cell viability inhibitors, primary screen, luminescence; cancer stem cell-like cells viability; inhibition, % at 7.5 µM; actives 1.1% (n = 300,000); AID 2717, 2010;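 active = mean at 75% or more and at least half the replicates too; inconclusive = mean and replicates disagree; tested in HMLE shEcad cells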;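 also: 0% = median of negative and 100% = median of positive control wells; the first replicate is given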
UUG fidelity – modulators of yeast start codon fidelity, primary screen, whole organism, S. cerevisiae, single point, plate reader; S. cerevisiae UUG-firefly luciferase reporter, luminescence/redox ratio; activity score, % at 18.7 µM; actives 0.13% (n = 350,000);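 active = replicate mean at a twofold rise or more, about +100% in these data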;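 also: firefly luciferase made from a UUG start codon reports start codon fidelity; reporter light over untreated wells divided by growth signal over untreated wells; some hits fall short of that in this replicate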
PABP polyA inh – PABP poly(A) RNA binding inhibitors, primary screen, biochemical, fluorescence polarization, uHTS. Polyadenylate-binding protein 1 (Homo sapiens), P11940. inhibition, % at 35 µM. actives 1% (n = 290,000);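 active = 50% or more with normal probe brightness, or confirmed in later tests; inconclusive = above 50% with abnormal brightness, or retests that disagree; inactive = below 50% or failed in later tests; about a fifth of its hits are not listed in these tables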;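 also: calls also rest on retests at 20 µM and on dose response follow-up; controls were probe without protein and protein plus probe with vehicle; some compounds called inactive have numbers as strong as hits; many hits fall short of the cut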
MT1-MMP act inh – blockers of MT1-MMP proenzyme processing, primary screen, HT1080 RFP-PRO-GFP cells, GFP/RFP fluorescence | Matrix metalloproteinase-14 (Homo sapiens), P50281 | GFP/RFP ratio fluorescence, overnight; percent of plate control window, DMSO zero | GFP/RFP ratio change, % at 20 µM | actives 0.061% (n = 360,000) | AID 651647, 2012;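 active = GFP/RFP ratio change of at least 30% with cell ATP level not reduced by more than half and red fluorescence within 50% of control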; also: strong numbers were not always called active
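Read-out: GFP/RFP fluorescence ratio; Test system: RFP-PRO-GFP reporter HT1080 cells; Compound dosing: single-point 20 µM compound, 1% DMSO; Times: overnight compound exposure at 37 °C.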
Rce1 inh – yeast Rce1p protease inhibitors, primary screen, biochemical, fluorescence, cell-free homogeneous; CAAX prenyl protease 2 (Saccharomyces cerevisiae (strain ATCC 204508 / S288c)), Q03530; yeast membranes, quenched prenylated peptide cleavage fluorescence; calls only; actives 0.27% (n = 290,000); AID 2563, 2010;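 active = fall in fluorescence gain of 50% or more versus controls, with final raw signal at or below 3038400; inconclusive = same 50% fall but final raw signal above 3038400; inactive = fall in fluorescence gain under 50%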;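 also: plate controls were neutral control wells for no effect and wells lacking membranes for full effect; tested at 10 µM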
Target sequence (Q03530 whole entry, looked up): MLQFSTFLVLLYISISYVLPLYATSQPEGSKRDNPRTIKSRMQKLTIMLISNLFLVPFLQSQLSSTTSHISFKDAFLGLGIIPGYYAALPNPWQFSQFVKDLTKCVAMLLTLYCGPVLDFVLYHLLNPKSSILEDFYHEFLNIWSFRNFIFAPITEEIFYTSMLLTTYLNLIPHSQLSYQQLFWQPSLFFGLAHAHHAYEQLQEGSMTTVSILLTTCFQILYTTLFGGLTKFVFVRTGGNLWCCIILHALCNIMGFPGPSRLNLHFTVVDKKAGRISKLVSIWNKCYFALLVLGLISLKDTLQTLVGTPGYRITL
eIF4H FP inh retest – second read-out of eIF4H FP inh, no call of its own (marks repeat the call); inhibition, %; compound at 20 µM; confirmation average;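 mean of two retest wells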
PABP polyA inh retest – recorded beside PABP polyA inh, whose call it bears; inhibition, %; compound at 20 µM; confirmation repeats;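 mean of two retest wells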
MT1-MMP act inh RFP – also measured in MT1-MMP act inh; calls as there; RFP signal change, %; measured here: RFP expression control read;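 0 = vehicle wells; hits needed this value within 50% of zero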
* = called active by the depositor; i = inactive; ? = inconclusive; . = not tested or not shown. This is a subset; rates above refer to the full screens.

SMILES	eIF4H FP inh	Env fusion inh	CSC inhib	UUG fidelity	PABP polyA inh	MT1-MMP act inh	MT1-MMP act inh RFP	Rce1 inh	others
Nn1c(Cc2ccccc2F)nnc1SCC(=O)Nc1cccc(S(=O)(=O)NC2=NCCCCC2)c1	-6	12	-2	-20	5	-2	-3	i
Cc1ccc(N2CC(C(=O)NCc3n[nH]c(=O)c4ccccc34)CC2=O)cc1 (stereo unspecified)	.	-8	1	.	.	-5	5	i
CC(C)(C)NC(=O)C(c1ccccn1)N(C(=O)C1CSC(=O)C1)c1ccc(F)cc1 (stereo unspecified)	-1	-55	.	-14	-4	-2	2	i
Cc1cc(-c2c(C)[nH]n(-c3ccccc3)c2=O)n[nH]1	3	6	0	.	-7	5	1	i
COc1ccc(C2(CNC(=O)c3cccc([N+](=O)[O-])c3)CCOCC2)cc1	0	7	-31	-5	6	-4	-1	i
Cn1c(SCC(=O)Nc2ccc(Br)cc2F)nnc1-c1ccco1	4	-9	-1	-6	-7	-1	0	i
COC(=O)C1[C@H]2C(=O)N(Cc3cccs3)C[C@]23C=C[C@H]1O3 (stereo partly specified)	8	-79	.	-7	9	-4	-1	i
Cc1cc(/C=N/NC(=O)CC2(C)OCCO2)c(C)n1-c1cc(Cl)cc(Cl)c1	4	.	-5	0	1	-2	3	i
CC(=O)c1ccc(NC(=O)CSc2ccc(-c3sc(C)nc3C)nn2)cc1	-3	-39	-9	-7	2	5	-7	i
Fc1ccccc1CSc1nncn1NCc1cccs1	-4	0	-14	-14	-3	-8	-1	i
C[C@@H]1C=C(C(=O)N2CCN(C)CC2)O[C@H](OCc2ccc(CO)cc2)C1	-4	11	-2	12	1	-2	2	i
COc1ccccc1C(O)(c1ccccc1)c1ccccc1OC	.	13	.	-14	.	-8	-6	.
Nc1ccc(C(=O)N(CCO)CCO)cc1	12	9	5	.	6	-56	-49	i
Cc1ccccc1/C=C/C1=NCCN1	.	32	-5	-9	.	-1	-1	.
Cc1nn(C)c2ncc(C(=O)c3ccccc3O)cc12	-4	7	3	-9	1	0	0	.
COc1cccc(NC(=O)C2C3C=CC(O3)C2C(=O)NCc2cccnc2)c1 (stereo unspecified)	0	2	13	-23	-1	0	6	i
O=C(Nc1ccc(F)c(Cl)c1)C1CC(=O)n2c(nc3ccccc32)N1 (stereo unspecified)	4	-75	-12	.	-2	0	-13	i
COc1ccc(C(=O)CC(=O)c2ccccc2)cc1	.	-101	7	-31	.	4	0	i
CC(=O)N/N=C(/C)c1ccc(NC(=O)c2csc(C)c2C)cc1	-11	.	.	-23	5	-2	1	i
c1ccc2c(c1)OCc1cn[nH]c1-2	-9	7	-3	-20	2	3	1	i

Part of the list above in order of SMILES length, lowest first.
SMILES	eIF4H FP inh	Env fusion inh	CSC inhib	UUG fidelity	PABP polyA inh	MT1-MMP act inh	MT1-MMP act inh RFP	Rce1 inh	others
COc1ccccc1C(O)(c1ccccc1)c1ccccc1OC	.	13	.	-14	.	-8	-6	.
CC(=O)c1ccc(NC(=O)CSc2ccc(-c3sc(C)nc3C)nn2)cc1	-3	-39	-9	-7	2	5	-7	i
Cc1ccc(N2CC(C(=O)NCc3n[nH]c(=O)c4ccccc34)CC2=O)cc1 (stereo unspecified)	.	-8	1	.	.	-5	5	i

(more compounds)
SMILES	eIF4H FP inh	Env fusion inh	CSC inhib	UUG fidelity	PABP polyA inh	MT1-MMP act inh	MT1-MMP act inh RFP	Rce1 inh	others
COC(=O)c1ccc(CON2C(=O)c3ccccc3C2=O)cc1	1	.	-2	-6	2	5	1	i
CC(=O)c1cccc(NC(=O)c2sc(Cl)nc2C)c1	-6	-9	-4	-3	2	0	-3	i
CCn1c2ccccc2c2cc(/C=N/O)ccc21	6	31	-15	.	-5	-9	-11	i
CC(=O)c1cccc(NC(=S)NCCc2ccc(F)cc2)c1	-10	-1	.	.	-12	-2	-2	i
Cc1ccc(CNC(=O)CCCn2c(=O)c3ccccc3n(CC(=O)NCc3ccco3)c2=O)cc1	-5	.	-10	1	-4	2	1	i
CCOC(=O)C1CCN(Cc2cn[nH]c2-c2ccc(C)cc2)CC1	-3	-18	-24	.	6	-3	-2	i
Oc1ccc(-c2sc(Nc3ccccc3)n[n+]2-c2ccc(F)cc2)cc1	-1	5	-7	-12	3	-2	2	i
CSc1nc2ccccc2cc1/C=C(\C#N)c1ccc(Cl)c(Cl)c1	8	.	43	-15	-2	-4	-4	i
COc1ccc(-c2nnc(NC(=O)CSc3ccccc3)s2)cc1OC	-1	-1	-11	.	6	-1	-2	i
COc1cc([N+](=O)[O-])ccc1NC(=S)Nc1cc(C(=O)OC(C)C)cc(C(=O)OC(C)C)c1	-6	-17	28	-10	8	-9	-1	i
Cc1n[nH]c(=O)c2c(NC(=O)COC(=O)Cc3c(F)cccc3Cl)oc(C)c12	.	6	10	.	.	3	3	i
CCc1cc(=O)n2c([nH]c3ccccc32)c1C#N	?	.	20	-26	?	1	8	i
N#Cc1ccc(C(=O)N2CCCCC2c2cc(C(=O)Nc3cccc(C#N)c3)no2)cc1 (stereo unspecified)	.	3	.	-3	.	1	-5	.
C/C(=N/NS(=O)(=O)c1ccccc1)c1ccc(NC(=O)C2CC2)cc1	-4	8	2	23	-4	-6	-2	i
c1ccc(Cn2nnc3cnccc32)cc1	4	.	-1	-2	-6	0	4	i
CCN(C(=O)COC(=O)C(Cc1ccccc1)N1C(=O)c2ccccc2C1=O)C1CCS(=O)(=O)C1 (stereo unspecified)	1	.	-2	.	-8	-2	0	i
COc1ccc(C(=O)c2c(N)sc3c2CCN(C)C3)cc1	69	0	.	-13	20	-7	6	i	eIF4H FP inh retest=4;PABP polyA inh retest=21
O=C(Nc1cccc(C(F)(F)F)c1)c1sc(Cl)nc1C(F)(F)F	-11	-97	8	2	-14	-2	5	i
O=C(CS(=O)(=O)c1ccc(Cl)cc1)NCc1ccccc1	-2	5	-4	-23	-5	-4	1	i
Cc1ccc(NC(=O)c2ccc(NCCN)c([N+](=O)[O-])c2)cc1Cl	-6	-9	6	.	-3	10	0	i
COc1ccc(N(C(=O)c2cccnc2)S(=O)(=O)c2cccc([N+](=O)[O-])c2)cc1	-11	17	-5	-8	2	3	5	i
COc1ccc(OC)c(C(=O)NC2CC(C)(C)Cc3c2cnn3-c2ccccc2)c1 (stereo unspecified)	-12	13	.	-3	7	1	-9	i
COc1nccnc1NS(=O)(=O)c1ccc(N)cc1	-11	22	.	-19	6	-1	3	i
C/C(=N\NC(=O)CCCNc1cccc(C)c1)c1ccncc1	-7	-42	-4	.	-2	2	0	i
Cc1ccc(CNC(=O)c2ccc(C)s2)cc1	.	0	-2	-5	.	1	-1	i
COc1ccc(NS(=O)(=O)c2ccc(N/N=C(\C)c3ccncc3)c([N+](=O)[O-])c2)cc1	3	19	33	.	16	-3	-28	i
CN1C(=S)N(c2cccnc2)C(=O)/C1=C\c1ccc(N(C)C)cc1	14	4	.	-23	5	-58	28	i
Cc1ccn2c(CNCC3COCCO3)c(C(=O)N3CCCCCC3)nc2c1 (stereo unspecified)	-4	-11	5	-1	-7	0	0	i
O=C1c2ccccc2C(=O)c2c(NCCCN(CCO)CCO)cccc21	14	-47	.	.	-21	30*	25*	i
Cc1cccc(CN2CCN(C3CCCC3)C(CCO)C2)n1 (stereo unspecified)	-6	14	-6	.	-1	0	0	i
Cc1cc(C)cc(N(CC(=O)NCCSCc2ccccc2)S(C)(=O)=O)c1	-8	9	-5	.	4	0	-1	i
C=CCN(CC=C)C(=O)c1cccc(OC2CCN(CC(C)(C)C)CC2)c1	-2	-35	-7	2	3	3	5	i
CN(C(=O)Cc1noc2ccccc12)c1ccccc1	6	-6	.	.	30	1	6	i
CC(C)CC(=O)/C(=C/c1ccc(N(C)C)cc1)n1cncn1	-14	11	-6	-18	-16	-23	0	i
Cn1c(N2CCC(C(N)=O)CC2)nc2c1c(=O)n(Cc1ccc(Br)cc1)c(=O)n2C	.	34	6	-6	.	.	.	i
O=C1CC(C2CCCO2)C(=O)N1c1cccc(Cl)c1 (stereo unspecified)	3	.	-2	-28	-2	4	4	i
N#C/C(=C\c1ccc(-c2ccc(C(=O)O)cc2)o1)C(=O)NCC1CCCO1 (stereo unspecified)	46	.	-1	.	-6	2	2	i
N/C(=N\OC(=O)CCC1CCCC1)c1ccc(Cl)cc1	-8	-14	-7	-15	-6	-2	-2	i
O=[N+]([O-])c1cc(Cl)c(Cl)c(Cl)c1Cl	.	.	-2	-17	.	1	8	.
Cn1nc(C(F)(F)F)c(C(=O)Nc2cccc(C(F)(F)F)c2)c1SCc1ccc(Cl)cc1	-7	10	105*	-2	-6	-7	-15	i
COc1ccc(Cl)cc1N1C(=O)C2CCCN2C1c1ccc(F)c(F)c1 (stereo unspecified)	7	4	-23	-4	2	2	5	i
O=C(c1ccco1)N1CCN(Cc2cc(=O)c(OCc3cccc(Cl)c3)co2)CC1	.	-1	-3	2	.	3	-2	i
CCC(=O)N/N=C/c1ccc(-c2ccc(Cl)cc2)o1	-3	-26	-4	.	4	2	4	i
O=C(NCC1COc2ccccc2O1)c1ccc(NC(=O)c2ccco2)cc1 (stereo unspecified)	-7	.	-5	5	5	6	-2	i
Cn1c(-c2cccs2)[n+](C)c2ccccc21	4	34	-14	.	?	0	-3	i
Cc1ccc(CC(NC(=O)c2ccccc2)C(=O)NC(C)C(=O)O)cc1 (stereo unspecified)	-2	-30	-2	-8	7	-5	1	i
COc1ccc(C(=O)Nc2cccc(NC(=O)c3ccc(OC)cc3OC)n2)c(OC)c1	.	-89	-13	.	.	4	3	i
CCCCn1c(N)c(N(CC(C)C)C(=O)c2cc(-c3ccc(OC)cc3)nc3ccccc23)c(=O)[nH]c1=O	.	-11	.	7	.	-3	-12	.
CS(=O)(=O)c1ccc(-c2sc3ccccc3c2C(=O)N2CCN(c3ccc(F)cc3)CC2)cc1	.	-152	18	10	.	9	8	.
CCN(c1ccc(C)cc1C)S(=O)(=O)c1nnc(NC(=O)C(C)(C)C)s1	-18	19	7	13	-15	6	-4	i
Cc1cc(=O)oc2cc(OCCSCCN3CCCC3)ccc12	3	-20	-1	-20	-2	1	2	i
O=C(CNC(=O)c1cccs1)OCC(=O)c1ccccc1Cl	8	4	-3	.	2	3	3	i
CC(C)N(Cc1nccn1C)C(=O)c1ccc2oc(CCCc3ccccc3)nc2c1	-4	41	2	-13	-8	2	-2	.
O=C1c2ccc(Oc3ccc4c(c3)C(=O)N(CCCO)C4=O)cc2C(=O)N1CCCO	8	.	-3	-6	4	0	0	i
CCCNS(=O)(=O)c1cc2c3c(c1)C(C)C(=O)N3CCC2 (stereo unspecified)	-6	6	-12	32	2	-3	3	i
COc1ccc(C(c2sc3nc(C)nn3c2O)N2CCC(C(N)=O)CC2)cc1OC (stereo unspecified)	-6	21	-1	-12	12	-6	2	i
C(=N\N1CCN(c2ccccc2)CC1)/c1ccccc1	-3	-25	1	-8	-8	0	-1	i
CCCCn1c(=N)n(CC(=O)c2ccc(Br)s2)c2ccccc21	4	24	36	-15	7	-9	-7	i

Bioassay records: PubChem, several laboratories
